Screening results as filed in PubChem BioAssay.
Arbovirus inh: blocks arbovirus infection | inhibition, % at 10 µM | 200,000 compounds, 0.37% hits | arbovirus infection cell-based antiviral screen | AID 1251;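 active means inhibition from about 30%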;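 further: bluetongue infection of BSR cells; cell survival read as ATP light after 72 h; 0% = infected wells without compound and 100% = uninfected wells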
RecA intein inh: Mtb RecA intein splicing inhibition | 290,000 compounds, 0.75% hits | cell-free RecA intein splicing, fluorescence | inhibition, %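 (about 9 µM by stock and volumes)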 | P9WHJ3; in the data active means inhibition above about 30%; inconclusive means no clear call, values can overlap the other calls;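 further: 0% = vehicle wells and 100% = reference inhibitor control wells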
Target sequence (P9WHJ3 whole entry, looked up): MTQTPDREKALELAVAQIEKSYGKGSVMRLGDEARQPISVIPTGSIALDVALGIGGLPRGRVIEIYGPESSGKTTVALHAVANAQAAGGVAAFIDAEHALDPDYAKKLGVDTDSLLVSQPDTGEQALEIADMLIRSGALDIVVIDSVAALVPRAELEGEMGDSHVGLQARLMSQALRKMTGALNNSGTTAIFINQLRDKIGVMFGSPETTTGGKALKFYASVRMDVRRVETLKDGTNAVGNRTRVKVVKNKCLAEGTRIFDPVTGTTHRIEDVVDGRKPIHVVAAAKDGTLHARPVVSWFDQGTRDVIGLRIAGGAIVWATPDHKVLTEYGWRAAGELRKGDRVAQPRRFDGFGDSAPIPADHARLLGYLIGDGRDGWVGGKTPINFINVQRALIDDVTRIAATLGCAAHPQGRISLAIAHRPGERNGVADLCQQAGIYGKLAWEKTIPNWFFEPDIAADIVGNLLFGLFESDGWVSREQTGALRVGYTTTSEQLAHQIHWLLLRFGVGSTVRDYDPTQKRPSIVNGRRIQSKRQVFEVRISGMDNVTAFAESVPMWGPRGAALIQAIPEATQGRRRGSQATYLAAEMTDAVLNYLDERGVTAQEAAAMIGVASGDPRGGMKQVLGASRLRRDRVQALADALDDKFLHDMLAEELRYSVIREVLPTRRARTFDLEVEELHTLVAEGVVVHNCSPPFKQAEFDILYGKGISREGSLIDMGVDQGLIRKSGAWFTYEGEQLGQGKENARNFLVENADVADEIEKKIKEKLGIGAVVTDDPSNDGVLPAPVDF
Mtb H37Rv: M. tuberculosis H37Rv growth inhibitors, H37Rv strain (AID 1626); inhibition, % at 10 µM, or IC50 in µM where a hit was titrated; M. tuberculosis H37Rv growth inhibition; higher % means a stronger effect; 220,000 compounds, 0.95% hits;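 active means confirmed in a dose series; inconclusive means inhibition above 80% but not taken into the dose series; inactive means below 80% or under 30% at every dose of the series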;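 further: bacteria incubated seven days before Alamar blue readout; 0% = bacteria only wells and 100% = bacteria with antibiotic wells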
YopH PTP inh: YopH (Yersinia) phosphatase inhibition; fluorescence Ex485/Em525; inhibition, %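 (about 10 µM by stock and volumes)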; 140,000 compounds, 0.16% hits; AID 898;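 active means inhibition of 50% or more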;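 further: controls were vehicle for no effect and minimum signal wells for full effect; inactives centre near -20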
Mtb betalactam: beta-lactam sensitization of Mtb H37Rv | 330,000 compounds, 0.27% hits | M. tuberculosis H37Rv growth with meropenem, percent inhibition; hits of this screen are not shown here | inhibition, % at 25 µM;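 active means about 74% or more and at least 40 points above the plate without the antibiotic, then above 30% in a dose series; inconclusive means first-round hits that could not be retested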;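 further: growth measured after seven days incubation then overnight dye step; 0% = bacteria only wells and 100% = bacteria with antibiotic; twin plates without the antibiotic show which effects depend on it; some results filed as inactive read as strong as hits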
Arbovirus inh repeat: further read-out of Arbovirus inh, marked with its call; inhibition, %; measured here: 10K subset replicate screen; many hits read low in the repeat;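 first of two repeat runs on a subset; 0% = infected and 100% = uninfected wells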
* marks the source's active call; other numbers are inactive results; ? = inconclusive; . = not tested or not shown.

SMILES	Arbovirus inh	RecA intein inh	Mtb H37Rv	YopH PTP inh	Mtb betalactam	others
CN(C)S(=O)(=O)c1cccc(NC(=O)CSc2nnnn2-c2ccccc2)c1	.	0.0	12%	.	-11
CN1CCN(C(=O)c2ccc(N3CCCC3=O)cc2)CC1	6	3.6	-14%	-17	3
COc1cc(/C=N/NC(=O)CCn2cnc(-c3ccccc3)c2-c2ccccc2)ccc1O	-16	5.8	6%	-8	11
COC(=O)c1cc(C(=O)OC)cc(-n2c(C)cc(C(=O)CC#N)c2C)c1	-4	-4.0	-6%	-11	-2
COc1ccc(CC2(CO)CCN(Cc3cccc(OC)c3OC)CC2)cc1	-4	2.1	-1%	.	-11
COc1ccc(OC)c(CCNC(=O)CCc2nnc3ccc(N4CCCCC4)nn23)c1	.	0.3	.	.	-2
O=C(O)C1CCC(=O)N(C2CCCCC2)C1c1ccccc1Cl (centres undefined)	.	-0.4	-13%	.	-17
CCOc1ccc(N(CC(=O)NC2CCCC2)C(=O)c2ccc(C)s2)cc1	.	3.8	.	.	1
COc1c(O)cnn(-c2ccccc2)c1=O	.	5.8	9%	.	-8
CCOC(=O)c1ccc([N+](=O)[O-])c(CS(=O)(=O)c2ccc(Cl)cc2)c1	.	0.5	.	.	3
Cn1cc(CN2CCC(n3nccc3NC(=O)c3ccccc3Cl)CC2)cn1	.	-0.1	.	.	?
Cc1cccc(NC(=O)CSc2nnc(C)c(C)n2)c1	.	-1.1	.	.	2
Cc1ccc(OCC(=O)Oc2ccc(C)c(C)c2)cc1	.	20	.	.	3
CCCCC(=O)NC(=S)Nc1ccc(NC(=O)C(C)C)c(OC)c1	-3	-3.7	-4%	.	.
Cc1ccccc1S(=O)(=O)Cc1ccc(C(=O)NCc2ccc(F)cc2)o1	4	1.3	3%	.	-3
COc1ccc(Cc2nnc(SCC(=O)Nc3ncc(C)s3)o2)cc1	-7	-0.8	-2%	13	3
C1CCc2c(nc3nnnn3c2NCC2CC2)C1	.	-0.3	-8%	.	1
COc1ccccc1CCNC(=O)C(=O)NCC1CCCN1S(=O)(=O)c1ccccc1 (centres undefined)	.	0.8	.	.	1
CCN1C(=O)[C@H]2[C@@H](c3ccc(SC4CCCCC4)cc3)N3CCCC[C@@]3(C(=O)OC)[C@H]2C1=O	.	-0.5	.	.	-2
Cc1cc(C(F)(F)F)c2sc(N)nc2n1	-3	-0.5	-2%	-45	-3
Cn1nccc1C(=O)NC1CCCc2c1cnn2-c1ccccc1F (centres undefined)	.	1.2	.	.	-2
CC1CCCN(CCOCCOc2ccccc2-c2ccccc2)C1 (centres undefined)	-12	-2.6	2%	1	0
COc1cc(NC(=O)c2cc(Cl)ccc2Cl)ccc1-c1cc2ccccc2oc1=O	-3	-2.1	11%	-31	?
Cc1cc(C(=O)NC(Cc2ccccc2)C(=O)O)c(C)o1 (centres undefined)	.	-2.0	2%	.	6
COc1ccc2c(c1)sc(N)[n+]2Cc1cc(C)cc2cccnc12	-23	-0.5	12%	-3	2
O=C(NC1CCCC1)C(c1ccccc1)N(C(=O)c1csnn1)C1CCCC1 (centres undefined)	.	-1.1	.	.	-1
O=c1[nH]c(=S)n(-c2ccc(Br)cc2)c2ncccc12	.	1.0	.	.	-4
CCCN(C(=O)CSc1nnnn1C)c1c(N)n(Cc2ccccc2)c(=O)[nH]c1=O	22	-1.9	-2%	.	-4
O=c1c2ccccc2nnn1CSc1nc2sc3c(c2c(=O)n1CC1CCCO1)CCC3 (centres undefined)	10	-1.4	6%	0	4
CC1(C)C/C(=N\O)C(C(O)c2cccc([N+](=O)[O-])c2)C(C)(C)N1 (centres undefined)	.	-1.7	-4%	.	0

Four entries out of the list, sorted by molecular weight, low to high:
SMILES	Arbovirus inh	RecA intein inh	Mtb H37Rv	YopH PTP inh	Mtb betalactam	others
CC1(C)C/C(=N\O)C(C(O)c2cccc([N+](=O)[O-])c2)C(C)(C)N1 (centres undefined)	.	-1.7	-4%	.	0
O=c1[nH]c(=S)n(-c2ccc(Br)cc2)c2ncccc12	.	1.0	.	.	-4
COc1ccc2c(c1)sc(N)[n+]2Cc1cc(C)cc2cccnc12	-23	-0.5	12%	-3	2
O=C(NC1CCCC1)C(c1ccccc1)N(C(=O)c1csnn1)C1CCCC1 (centres undefined)	.	-1.1	.	.	-1

(cont.)
SMILES	Arbovirus inh	RecA intein inh	Mtb H37Rv	YopH PTP inh	Mtb betalactam	others
Cc1cccc(C(C(=O)NC2CCCC2)N(C(=O)c2csnn2)C2CC2)c1 (centres undefined)	.	-0.6	.	.	4
O=[N+]([O-])c1ccc(N2CCCC2)c(F)c1Br	9	3.9	6%	-13	7
COc1cccc(NC(=O)CCC2CCN(C(=O)c3cncs3)CC2)c1	.	1.2	.	.	?
CC1CC(=O)Nc2cc([N+](=O)[O-])ccc2N1 (centres undefined)	.	-1.4	-4%	.	-1
COc1ccccc1CNC(=O)CCn1c(=O)[nH]c2ccsc2c1=O	1	0.2	-9%	-20	-4	Arbovirus inh repeat=-5
Cc1cc(C)c2cc(C(=O)Nc3ccc4c(c3)OCO4)[nH]c2c1	.	-0.2	0%	.	-8
COc1ccc(Br)cc1CN1CCN(C(=O)c2ccco2)CC1	.	0.9	.	.	-4
CCC(C)(C)n1nnnc1C(c1cccc(C#N)c1)N1CCN(c2cccc(C)c2C)CC1 (centres undefined)	-3	5.8	18%	-20	12
Cc1ccc(Nc2cc(C)nc3nc(C)nn23)cc1	-8	1.6	.	-12	6	Arbovirus inh repeat=-4
CC(C)CNC(=O)CC(=O)NN=C1CCCC1	-1	-1.0	-3%	-28	-7
O=C1C(=O)N(CCCn2ccnc2)C(c2cccnc2)/C1=C(/O)c1ccc(F)cc1 (centres undefined)	.	-1.1	-2%	.	5
O=C(NCCOc1nc(N2CCOCC2)nc(N2CCOCC2)n1)Nc1ccccc1	7	-6.8	-4%	-10	4
CN(c1ccc(C(=O)Nc2cccnc2)cc1)S(C)(=O)=O	-1	2.2	2%	7	-14
NC(=O)c1ccc(Oc2ccc3c(c2)CCC3)c([N+](=O)[O-])c1	.	1.9	.	.	8
Cc1cc(C)n(-c2nc3ccccc3nc2N2CCCC2)n1	-6	-2.5	-6%	0	-10
COc1ccc(C2Nc3ccccc3C(=O)N2Cc2ccco2)cc1COc1ccccc1F (centres undefined)	-14	10	3%	-11	-5
O=C(CCCn1c(=O)[nH]c2cc(Cl)ccc2c1=O)N1CCN(c2ccc([N+](=O)[O-])cc2)CC1	9	.	-2%	-33	.
COc1ccccc1C(=O)Nc1cccc2c1CCCC2	.	-0.4	.	.	31
Cn1c(O)c(N=NC(=S)Nc2ccccc2F)c2cc(S(=O)(=O)N3CCOCC3)ccc21	-12	5.7	-5%	.	.
COc1ccc(C=NCCCN2CCOCC2)cc1	4	0.5	-2%	-147	6
CC(NC(=O)c1ccccc1Cl)C1COc2ccccc2O1 (centres undefined)	3	-3.9	7%	-18	41
Cc1ccc(Oc2nnc(-c3ccccc3)cc2C#N)cc1	2	0.4	2%	-7	-11
Cc1ccc(SCC(=O)NCc2ccccc2)cc1	.	2.2	.	.	-2
COc1ccc(/C=N/Nc2nonc2N)cc1	-3	1.4	36%	-29	1
Cn1cc(CNC(=O)/C=C/c2ccc(Cl)cc2)cn1	4	4.0	7%	-40	-1
COc1ccc(S(=O)(=O)NC(CC(=O)N2CCC3(CC2)OCCO3)c2ccco2)cc1 (centres undefined)	3	-0.6	1%	12	0
COc1ccc(-c2nc(N/N=C(\C)c3ccc(O)cc3)c3ccccc3n2)cc1	.	-1.8	3%	.	7
O=C(CCC(=O)N1CCN(S(=O)(=O)c2ccc(Cl)cc2)CC1)Nc1ccc(Cl)cc1Cl	-12	3.7	1%	0	6
Cc1ccc(NC(=O)CCNS(=O)(=O)c2cccc3nsnc23)cc1	0	1.1	10%	-21	-3
NC1=NC(=O)/C(=C\c2ccc(-c3ccc(Cl)cc3)o2)S1	.	-13	.	.	97

Grouped by structure: the compounds so far containing an NH in an aromatic ring.
SMILES	Arbovirus inh	RecA intein inh	Mtb H37Rv	YopH PTP inh	Mtb betalactam	others
O=c1[nH]c(=S)n(-c2ccc(Br)cc2)c2ncccc12	.	1.0	.	.	-4
CCCN(C(=O)CSc1nnnn1C)c1c(N)n(Cc2ccccc2)c(=O)[nH]c1=O	22	-1.9	-2%	.	-4
COc1ccccc1CNC(=O)CCn1c(=O)[nH]c2ccsc2c1=O	1	0.2	-9%	-20	-4	Arbovirus inh repeat=-5
Cc1cc(C)c2cc(C(=O)Nc3ccc4c(c3)OCO4)[nH]c2c1	.	-0.2	0%	.	-8
O=C(CCCn1c(=O)[nH]c2cc(Cl)ccc2c1=O)N1CCN(c2ccc([N+](=O)[O-])cc2)CC1	9	.	-2%	-33	.

Entries from the list above containing a nitro group on carbon:
SMILES	Arbovirus inh	RecA intein inh	Mtb H37Rv	YopH PTP inh	Mtb betalactam	others
CCOC(=O)c1ccc([N+](=O)[O-])c(CS(=O)(=O)c2ccc(Cl)cc2)c1	.	0.5	.	.	3
CC1(C)C/C(=N\O)C(C(O)c2cccc([N+](=O)[O-])c2)C(C)(C)N1 (centres undefined)	.	-1.7	-4%	.	0
O=[N+]([O-])c1ccc(N2CCCC2)c(F)c1Br	9	3.9	6%	-13	7
CC1CC(=O)Nc2cc([N+](=O)[O-])ccc2N1 (centres undefined)	.	-1.4	-4%	.	-1
NC(=O)c1ccc(Oc2ccc3c(c2)CCC3)c([N+](=O)[O-])c1	.	1.9	.	.	8
O=C(CCCn1c(=O)[nH]c2cc(Cl)ccc2c1=O)N1CCN(c2ccc([N+](=O)[O-])cc2)CC1	9	.	-2%	-33	.

(list continues)
SMILES	Arbovirus inh	RecA intein inh	Mtb H37Rv	YopH PTP inh	Mtb betalactam	others
[N-]=[N+]=NC[C@H](Cc1ccccc1)N1CC[C@@H](NC(=O)OCc2ccccc2)CCC1=O	.	-1.9	.	.	-12
OC1CCCCC1Sc1nc2ccccc2s1 (centres undefined)	9	3.6	5%	-3	5
COc1ccc(C2C(C#N)C(C#N)N3CCCN23)cc1 (centres undefined)	5	3.2	1%	19	-15
CCC(C)(CC(=O)Nc1nccs1)c1ccccc1 (centres undefined)	.	2.4	.	.	0
CC(=O)c1cccc(NC(=O)c2cc(-c3ccco3)nc3ccccc23)c1	.	-0.7	.	.	2
Cc1cccnc1NC(=S)NC(=O)/C=C/c1ccccc1	3	-0.7	8%	.	-3
Cc1ccc(C)c(Oc2coc3cc(O)ccc3c2=O)c1	.	-0.8	.	.	-7
CC(=O)Cc1ccc(OC(C)C)cc1	.	-0.9	-2%	.	5
O=C1NC[C@H](c2ccccc2)N(CCc2cccc(F)c2)C1=O	.	-0.9	-4%	.	11
O=C(CN1C(=O)COc2ccccc21)c1cccc(Cl)c1	7	0.4	0%	-19	1
N=C1/C(=C\c2ccc(Br)o2)C(=O)N=C2SC(CC(=O)N3CCCCC3)=NN12	.	2.3	.	.	-2
CCC(C)Oc1cc(-c2ccnc(Nc3cccc(Cl)c3)n2)ccn1 (centres undefined)	.	1.4	16%	.	86
COc1ccccc1CNC(=O)C1CCCN(S(=O)(=O)c2c(C)[nH]c(=O)[nH]c2=O)C1 (centres undefined)	-1	-2.4	-6%	-14	0
COc1ccc(-[n+]2c(-c3ccccc3)cc(-c3ccccc3)cc2-c2ccccc2)cc1	.	9.2	.	.	100
COc1ccc(N(C(=O)c2ccc(F)cc2)C2=CC3CCC(C2)N3C)cc1 (centres undefined)	3	-1.2	2%	-25	3
CCOCCCN1CC(C(=O)NCc2ccc3c(c2)OCO3)CC1=O (centres undefined)	9	-3.6	4%	.	-5
C/C(=N\NC(=O)c1cc(C)oc1C)c1ccc2c(c1)OCO2	-5	0.4	-7%	.	7
CN(C)S(=O)(=O)c1ccc(C(=O)NCC(=O)Nc2ccc(F)c(F)c2)cc1	.	0.6	.	.	-1
COc1cc(OC)cc(C(=O)NNC(=O)CN2C(=O)NC(C)(c3ccccc3)C2=O)c1 (centres undefined)	.	9.1	.	.	-6
C[C@@H]1CC=C[C@H]2[C@H]1C(=O)N(Cc1ccccc1)[C@H]2c1ccc2ccccc2c1	.	10	3%	.	-8
COc1cc(NC2=Nc3cccc4cccc2c34)cc(OC)c1OC	8	1.4	6%	-12	5
O=S1OC(c2ccccc2)c2cc(Cl)ccc21 (centres undefined)	.	1.4	.	.	6
Cn1nnnc1SCC(=O)c1ccco1	3	-0.8	-5%	-44	3	Arbovirus inh repeat=2
O=S(=O)(Nc1ccc(-n2cccc2)cc1)c1ccc(Cl)cc1Cl	-44	2.5	11%	-43	92
COC(=O)C(CC(=O)c1ccc(Br)cc1)n1ccnc1 (centres undefined)	-6	1.4	.	-3	.
Cn1nnnc1SCC(=O)Nc1ccc(Cl)c(S(=O)(=O)N2CCOCC2)c1	.	.	-12%	.	-4
CC1CCCC(C)N1C(=O)Cn1cnc2cc([N+](=O)[O-])ccc2c1=O (centres undefined)	5	.	6%	.	-8

Only part of the results is shown. The share of hits here may be higher or lower than overall.
